KAT2A inh – inhibitors of human GCN5L2 histone acetyltransferase | Q92830 | GCN5L2 HAT assay, ThioGlo1 CoA-SH fluorescence | Potency, µM (highest dose often 58.9 µM), without a hit: top-dose activity change, negative = inhibition, most hits filed as inhibitors | 0.21% of 390,000 active | AID 504327; active means well fitted inhibition curve with a large enough effect; inconclusive means small, poorly fitted or top-dose-only effect, or another doubt; inactive means no such curve, though single readings can be large or run the other way
Target sequence (Q92830 whole entry, looked up): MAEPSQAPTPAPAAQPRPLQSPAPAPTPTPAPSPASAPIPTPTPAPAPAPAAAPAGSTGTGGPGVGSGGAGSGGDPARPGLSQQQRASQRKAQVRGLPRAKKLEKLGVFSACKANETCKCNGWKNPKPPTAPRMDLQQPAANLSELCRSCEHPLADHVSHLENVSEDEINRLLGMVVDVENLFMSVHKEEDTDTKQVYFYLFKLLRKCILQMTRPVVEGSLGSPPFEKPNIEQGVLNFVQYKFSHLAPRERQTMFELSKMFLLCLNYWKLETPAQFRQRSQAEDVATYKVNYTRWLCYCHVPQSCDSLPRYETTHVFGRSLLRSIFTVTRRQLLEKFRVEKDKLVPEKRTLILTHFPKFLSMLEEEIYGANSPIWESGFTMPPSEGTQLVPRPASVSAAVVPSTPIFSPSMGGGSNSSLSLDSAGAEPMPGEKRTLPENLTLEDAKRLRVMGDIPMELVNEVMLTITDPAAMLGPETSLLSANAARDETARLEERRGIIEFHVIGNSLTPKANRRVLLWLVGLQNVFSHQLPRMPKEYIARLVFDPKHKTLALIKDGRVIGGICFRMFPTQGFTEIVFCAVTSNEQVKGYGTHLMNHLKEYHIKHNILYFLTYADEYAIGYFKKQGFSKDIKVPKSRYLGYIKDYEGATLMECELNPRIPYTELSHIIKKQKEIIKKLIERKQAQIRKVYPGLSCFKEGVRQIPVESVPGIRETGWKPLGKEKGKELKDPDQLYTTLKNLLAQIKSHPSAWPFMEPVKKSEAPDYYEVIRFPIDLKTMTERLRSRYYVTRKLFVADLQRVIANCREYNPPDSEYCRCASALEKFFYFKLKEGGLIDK
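GCN5L2 (20 nM) in 50mM HEPES pH 7.5, 0.1mM EDTA, 0.01% Tween-20 preincubated 15 min with compounds at room temperature. Reaction started with H3(1-25) 75uM, acetyl-CoA 70uM, ThioGlo1 50uM; CoA-thiol fluorescence (Ex340/Em540) read at 0 and 20 min.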
The depositor's hits bear a star; ? = inconclusive; & = joins results of further samples. On the % scale 0 is the no-effect control and ±100 the full control effect; potency means the concentration at half of the fitted maximal effect. This is a subset, and most or all hits are left out here.

SMILES	KAT2A inh
CCNc1ccc(S(=O)(=O)N(C)C)cc1[N+](=O)[O-]	3%
O=C(c1c[nH]c2ccc(S(=O)(=O)Nc3ccccc3F)cc2c1=O)N1CCCCCC1	-5%
CS(=O)(=O)N1CCN(c2ccccc2NC(=O)c2cccnc2)CC1	0%
COCCNC(=O)c1cc(S(=O)(=O)N2CCOCC2)ccc1SCc1cccc(OC)c1OC	-4%
O=c1c(Cc2ccc(F)cc2)c(O)ccn1C1CC1	-12%
COc1ccccc1C(CNC(=O)c1cccc(S(=O)(=O)Nc2ccc(F)cc2)c1)N(C)C (centres undefined)	-4%
COc1ccc(CCNC(=O)Cn2c(=O)n(CCCC(=O)NCc3ccco3)c(=O)c3sccc32)cc1OC	3%
CC(Sc1nnc2c(n1)C1(C)CCC2C1(C)C)C(=O)Nc1ccccc1 (centres undefined)	-12%
CCCCNC(=O)NS(=O)(=O)c1ccc(C(=O)OC)o1	0%
S=C(Nc1ccc(Oc2ccccc2)cc1)N(CCCN1CCOCC1)Cc1ccccn1	-11%
CN(c1ccc(C(=O)NCc2ccc3c(c2)OCO3)cc1)S(C)(=O)=O	2%
Cc1ccc(Cl)cc1N(C)C(=O)c1cc2c(Cl)nc3ccccc3c2s1	-2%
Nc1nc(CN2CCN(C(=O)c3ccco3)CC2)nc(Nc2cccc(Cl)c2)n1	0%
O=C(Oc1ccc2c(c1)OCO2)c1ccncc1	-2%
CCCCN(C(=O)c1c(C)noc1C)c1c(N)n(CCC)c(=O)[nH]c1=O	2%
Cc1nc2nc(SCC(=O)NCc3ccccc3)nn2c(C)c1Cc1ccccc1	0%
Cc1ccc(-n2c(-c3ccncc3)n[nH]c2=S)c(C)c1	-8%
CCn1c(=O)n(CC)c2cc(N3CCCC3)c(NC(=O)c3ccccc3Br)cc21	-6%
Nc1ncnc2c1cnn2C1CCCCC1	7%
CCOc1cc(C(=O)Nc2ccc(S(=O)(=O)NC3=NCCCCC3)cc2)cc(Br)c1OC	-15%
Cc1nn(Cc2ccc(Cl)cc2Cl)c(C)c1NC(=O)c1nc2n(n1)C(C(F)F)CC(C)N2 (centres undefined)	4%
CCC(C)NC(=O)c1cc(CC(C)C)on1 (centres undefined)	0%
Cc1ccc(N2C(=O)c3n[nH]c(C)c3C2c2ccc(C(C)C)cc2)cc1 (centres undefined)	-1%
Cc1cccn2c(=O)c3cc(C(=O)NCC(C)C)sc3nc12	0%&-1%
NC(=O)c1c(NC(=O)C(=O)N2CCOCC2)sc2c1CCCC2	-8%

(list continues)
SMILES	KAT2A inh
COc1cc(CSc2ncc(CO)n2Cc2ccc(C)cc2)cc(OC)c1	-5%
O=C(NCc1ccccc1Cl)c1ccc2c(c1)nnn2C1CCCC1	-13%
Cc1oc(-c2ccccc2F)nc1CS(=O)(=O)CC(=O)NC1CCCC1	-2%
Cc1nn(C(=O)c2cc3sccc3[nH]2)c(C)c1C	0%
C[C@H](CO)N1C[C@H](C)[C@@H](CN(C)C(=O)NC2CCCCC2)Oc2c(NS(=O)(=O)c3cccs3)cccc2C1=O	0%
c1ccc(-n2ncc3c(NCc4cccnc4)ncnc32)cc1	-6%
Cc1nnc2c(N3CCN(c4ccccc4F)CC3)nc3ccc(C(=O)c4ccccc4)cc3n12	-6%
CC(=O)N1CCC2(CC1)C/C(=N\NC(=S)Nc1ccccc1C)c1cc(O)ccc1O2	-11%
CSc1ccc(CCNC(=O)CCc2c(C)nc3c(c(C)nn3-c3ccccc3)c2C)cc1	-6%
CC(C)Cc1oc(C(=O)O)cc1CN1CCOCC1	0%
COc1ccc(Cl)cc1NC(=O)C1CCN(S(=O)(=O)c2ccc3c(c2)CCCN3C(=O)C2CCC2)CC1	-2%
Cn1c(SCc2nc(-c3ccc(Cl)cc3)no2)nnc1-c1ccccc1	0%
Cc1cc(NC(=O)CSc2nc(-c3ccccc3)cs2)no1	-19%
CC(=O)c1cccc(NC(=O)c2noc3c2CCCC3)c1	-4%
CCOc1ccc(CN(C)c2ccc(S(=O)(=O)N3CCN(C)CC3)cc2[N+](=O)[O-])cc1OC	-13%
O=C(CSc1nc2[nH]ncc2c(=O)n1-c1ccccc1Br)NCc1ccccc1Cl	-10%
Cc1ccc(S(=O)(=O)N[C@@H](C)C(=O)N2CCC(C(=O)N3CCC[C@H]3C(=O)O)CC2)cc1	4%&1%
CC(SCc1ccccc1)C(=O)NCc1ccccn1 (centres undefined)	-7%
COc1ccc(Nc2nc3c(C)cccc3cc2C#N)cc1	-12%
O=C(CCSCc1cccc(Cl)c1)NCCC1=CCCCC1	-1%
CCOC(=O)C1=C(COC(=O)C2CC(=O)N(c3ccc(C)cc3)C2)NC(=O)NC1C (centres undefined)	2%
N#CCc1ccc(NC(=O)CSc2nnc(C3CC3)n2C2CC2)cc1	2%
Cc1nc(=O)c(-c2ccccc2)c(C)n1CCO	10%
CCOc1cc(C2C(C(=O)c3ccco3)=C(O)C(=O)N2CCc2ccccc2)ccc1O (centres undefined)	2%
Fc1ccc2c(Cl)c(-c3nnc(-c4cccs4)o3)sc2c1	-2%

2 entries picked at random from those above:
SMILES	KAT2A inh
CCOC(=O)C1=C(COC(=O)C2CC(=O)N(c3ccc(C)cc3)C2)NC(=O)NC1C (centres undefined)	2%
COc1cc(CSc2ncc(CO)n2Cc2ccc(C)cc2)cc(OC)c1	-5%

Next structures follow:
SMILES	KAT2A inh
CCN(CC)CCn1c(=S)[nH]c2cc(Cl)ccc2c1=O	-4%
CC(C)NC(=O)c1ccc2c(c1)N(CC(=O)N1CCOCC1)C(=O)C(C)(C)O2	2%
COc1ccc(C2(c3ccc(OC)cc3)NC(=O)N(CC(=O)NC3CCS(=O)(=O)C3)C2=O)cc1 (centres undefined)	-4%
COc1ccccc1C1NC(=O)NC(C)=C1C(=O)OC1CCC(C)CC1 (centres undefined)	0%
O=C(NCC1CCCO1)c1ccc(COCC(F)(F)C(F)F)cc1 (centres undefined)	?
O=C1CN2C(=Nc3ccc(Cl)cc3C2c2ccccc2)CN1 (centres undefined)	-4%
Cc1ccc(S(=O)(=O)N2CCC(C(=O)NCCc3ccccn3)CC2)cc1	-1%
O=C1N/C(=C/c2ccc(N3CCOCC3)cc2)C(=O)N1Cc1ccc(F)cc1	-2%
CC(C(=O)NC1CCCCC1)N(Cc1ccccc1)C(=O)c1snc(C(N)=O)c1N (centres undefined)	-7%
Cc1ccccc1NC(=O)c1cccc2nccnc12	-4%
COc1cc(CNCc2cccs2)ccc1OCC(N)=O	-10%
CCOc1ccc(NC(=O)c2cc(S(=O)(=O)N3CCCCCC3)cn2C)cc1	8%
CC1CCN(c2ccc(-c3ccc(NC(=O)C(F)(F)F)cc3)nn2)CC1	-5%
CN(C)S(=O)(=O)c1ccc2c(c1)N(CC(=O)Nc1ccc(F)cc1)C(=O)CS2	-1%
CC(=O)c1ccc(N2CCN(C(=O)Cn3ncc4c3-c3ccccc3OC4)CC2)cc1	-6%
CC(=O)Cn1c(=O)c2c(nc3n2CCCN3Cc2ccccc2)n(C)c1=O	-1%
Cc1cccc(C(=O)OCC(=O)N2CCc3ccccc3C2)c1O	-2%
CN(CC(=O)Nc1cccc2ccccc12)C(=O)c1ccc(NC(=O)CC#N)cc1	-9%
O=C1NC(=O)C2(COC3(CCCC3)OC2)S1	-4%
CCOC(=O)c1ccc(NC(=O)NCc2ccccc2)cc1	-21%
COc1ccc(-n2cnnc2SCc2cnc(-c3ccccc3)s2)cc1	-3%
O=Cc1ccc(-c2ccc(F)cc2)o1	-20%
O=C(Nc1c2c(nn1-c1ccc(F)cc1)CS(=O)C2)C12CC3CC(CC(C3)C1)C2 (centres undefined)	-1%
Cc1ccc2c(c1)c(=O)c(C(=O)c1ccccc1)cn2Cc1ccccc1F	-7%
CCOc1ccc(OCC)c(NC(=O)c2csc3c2CCCC3)c1	-5%

Quoted from the results shown, 21 compounds:
SMILES	KAT2A inh
O=C(NCC1CCCO1)c1ccc(COCC(F)(F)C(F)F)cc1 (centres undefined)	?
O=C1CN2C(=Nc3ccc(Cl)cc3C2c2ccccc2)CN1 (centres undefined)	-4%
Cc1ccc(S(=O)(=O)N2CCC(C(=O)NCCc3ccccn3)CC2)cc1	-1%
O=C1N/C(=C/c2ccc(N3CCOCC3)cc2)C(=O)N1Cc1ccc(F)cc1	-2%
CC(C(=O)NC1CCCCC1)N(Cc1ccccc1)C(=O)c1snc(C(N)=O)c1N (centres undefined)	-7%
Cc1ccccc1NC(=O)c1cccc2nccnc12	-4%
COc1cc(CNCc2cccs2)ccc1OCC(N)=O	-10%
CCOc1ccc(NC(=O)c2cc(S(=O)(=O)N3CCCCCC3)cn2C)cc1	8%
CC1CCN(c2ccc(-c3ccc(NC(=O)C(F)(F)F)cc3)nn2)CC1	-5%
CN(C)S(=O)(=O)c1ccc2c(c1)N(CC(=O)Nc1ccc(F)cc1)C(=O)CS2	-1%
CC(=O)c1ccc(N2CCN(C(=O)Cn3ncc4c3-c3ccccc3OC4)CC2)cc1	-6%
CC(=O)Cn1c(=O)c2c(nc3n2CCCN3Cc2ccccc2)n(C)c1=O	-1%
Cc1cccc(C(=O)OCC(=O)N2CCc3ccccc3C2)c1O	-2%
CN(CC(=O)Nc1cccc2ccccc12)C(=O)c1ccc(NC(=O)CC#N)cc1	-9%
O=C1NC(=O)C2(COC3(CCCC3)OC2)S1	-4%
CCOC(=O)c1ccc(NC(=O)NCc2ccccc2)cc1	-21%
COc1ccc(-n2cnnc2SCc2cnc(-c3ccccc3)s2)cc1	-3%
O=Cc1ccc(-c2ccc(F)cc2)o1	-20%
O=C(Nc1c2c(nn1-c1ccc(F)cc1)CS(=O)C2)C12CC3CC(CC(C3)C1)C2 (centres undefined)	-1%
Cc1ccc2c(c1)c(=O)c(C(=O)c1ccccc1)cn2Cc1ccccc1F	-7%
CCOc1ccc(OCC)c(NC(=O)c2csc3c2CCCC3)c1	-5%

Additional results follow.
SMILES	KAT2A inh
CSCC[C@H](NC(=O)NCc1cccs1)C(=O)O	-2%
CC(C)Oc1ccc(CNC(=O)c2cnc3sc(N4CCCCC4)nn3c2=O)cc1	-2%
O=C(COc1ccc(F)cc1)Nc1ccccc1N1CCOCC1	-2%
CC(C)c1ccc(NC(=O)c2cnn(-c3ccccc3)c2NC(=O)c2ccco2)cc1	0%
O=C(O)c1ccccc1Nc1ccnc(Cl)n1	1%
Cc1cccc(-c2nc3ccccc3c(=O)n2NC(=O)c2ccc([N+](=O)[O-])c(C)c2)c1	1%
Cc1c(C(=O)N2CC[C@@H](N3CCC(O)CC3)[C@H](O)C2)[nH]c2ccc(Cl)cc12	-15%
Cc1cccc(CNC(=O)Cn2c(-c3cccs3)cc3ccccc32)c1	-1%
COc1cc(-c2nc(CN(C)C(C)c3ccncn3)c(C)o2)ccc1F (centres undefined)	0%
Cc1ccccc1C(=O)O/N=C(\N)c1ccncc1	-1%
COc1ccc(C(=O)Sc2ccc(C)cc2)cc1OC	-4%
COc1ccc(N(CC(=O)NCc2ccccc2OC)S(=O)(=O)c2ccccc2)cc1	1%
CC(Sc1nnc(C2CCCCC2)n1N)C(=O)NCc1ccc2c(c1)OCO2 (centres undefined)	1%
O=C(CCCN1C(=O)C(c2ccccc2)Oc2cccnc21)Nc1cccc(F)c1 (centres undefined)	-6%
COc1cc(OC)c(OC)cc1CNC(=O)c1ccc(S(=O)(=O)N2CCCCC2)cc1	1%
CC(C)c1nc(N2CCN(C(=O)c3ccco3)CC2)c2c3c(sc2n1)CCCC3	-4%
O=C(NC1CCCC1)C(c1ccccc1)N(C(=O)c1ccno1)c1ccccc1 (centres undefined)	-3%
O=C(COC(=O)CNC(=O)c1ccccc1F)NCC(F)(F)F	-1%
COCCN(C(=O)CSc1n[nH]c(-c2ccc(OC)cc2)n1)c1c(N)n(Cc2ccccc2)c(=O)[nH]c1=O	-3%
CN(Cc1ccccc1)C(=O)c1[nH]cnc1C(=O)NCc1ccccc1	-4%
Cc1ccc(C)c(NC(=S)NCc2ccc3c(c2)OCO3)c1	-5%
CC(C)CCNC(=O)c1ccc2c(c1)ncn2C1CCCC1	-4%
CCCC1C2C(=O)N(c3ccccc3OCC)C(=O)C2ON1c1ccccc1 (centres undefined)	-1%
O=C(COc1ccccc1Cl)N1CCN(c2ccc(F)cc2)CC1	-4%

Source: PubChem BioAssay
